From PubChem
NPYLR7 agonist = activates Aedes aegypti NPYLR7 receptor | AID 1259423 | HEK293T NPYLR7/Galpha15, GCaMP6s calcium fluorescence | activation, % at 10 µM | 270,000 tested, 0.15% active; in the data active = activation above about 40%;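 note: 0% = vehicle and 100% = reference agonist at the receptor; some compounds past the cut are filed as inactive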
NPYLR7 agonist max-min = also measured in NPYLR7 agonist; calls as there; activation, %; measured here: Max-Min RFU normalised activation; some inactives read as strong as hits;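 span of the calcium signal over five minutes; 0% = vehicle and 100% = native peptide agonist; compound fluorescence can raise it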
Numbers without * were called inactive; & = joins results of further samples.

SMILES	NPYLR7 agonist	NPYLR7 agonist max-min
CC(C)c1ocnc1C(=O)N(C)c1cc(C#N)c2ccccc2n1	10	8
Cc1cc(CN2CCN(C(=O)Nc3ccccc3Oc3ccccc3)CC2)on1	6	2
O=C(C=Cc1cccc(F)c1)N1CCN(S(=O)(=O)c2ccccc2)CC1	11	2
OC(COc1ccccc1)CN(Cc1cccc(F)c1)CC1CC(c2ccccc2Cl)=NO1 (stereo not given)	-4	3
CCCNCC(=O)N(CCc1c[nH]c2ccccc12)Cc1ccc(OC)c(OC)c1	-3	-9
COCCNC(=O)c1coc(CN(Cc2ccc(C(F)(F)F)cc2)Cc2ccc3c(c2)OCO3)n1	17	21
CN1CCN(n2c3c(c(SCC(=O)Nc4ccc5c(c4)OCO5)nc2=O)CCCC3)CC1	2	-4
COC(=O)c1ccc(NC(=O)CN(C)Cc2ccccc2OC)cc1	3	2
O=C(N1CCN(c2ncnc3c2nnn3Cc2ccccc2)CC1)C12CC3CC(CC(C3)C1)C2	-2	-10
O=C(CN1C(=O)C2C3C=CC(C3)C2C1=O)NCC12CC3CC(CC(C3)C1)C2 (stereo not given)	-1	-7
Cc1csc(NC(=O)COc2c(C)cc(Cl)cc2C)n1	-7	-10
O=C(O)CSc1nnc(C2CCCNC2)n1-c1cccc(Cl)c1 (stereo not given)	2	14
CC(=O)c1cccc(NC(=O)CC2S/C(=N/N=C\c3ccc(C)o3)NC2=O)c1 (stereo not given)	13	12
CCOC(=O)N1CCN(C2CCCN(Cc3cccn3-c3nccs3)C2)CC1 (stereo not given)	-1	-3
O=C1Cn2c3c(c4cccc(c42)N1)CN(Cc1ccccc1)CC3	-6	-8
NC(=O)c1ccc(NCC(=O)N(Cc2ccccc2)C2CC2)cc1Cl	-4	-6
CCOC(=O)NNC(=O)c1cc2c(C)cc(C)cc2[nH]1	2	-2
OCCN1CCN(C2CCN(Cc3ccco3)CC2)CC1	14	8
Cc1ccc(NC2CC(=O)N(N(C)C)C2=O)cc1 (stereo not given)	-13	-18
CCc1nnc(NC(=O)CSc2nnc(NC(=O)c3ccc(C(=O)c4ccccc4)cc3)s2)s1	-6	2
CCC(c1ccccc1)C1CCCN1C(=O)CCn1cnc2sccc2c1=O (stereo not given)	8	7
NC(=O)[C@@H]1CCCN1c1ccc(-c2nc(-c3ccccc3F)no2)cn1	15	1
Cc1[nH]c2ccccc2c1SCC(=O)N1CCCCCC1	0	0
CCN(C(=O)CN(C)C1CCC(CO)CC1)C1CC1 (stereo not given)	3	1
CCC(CC)=NNC(=O)Cc1cn2ccsc2n1	2	-3
O=C(O)CN1C(=O)c2cccc3c(I)cc(Br)c1c23	4	-2
CCOC(=O)C1CCN(C(=O)c2ccc(CSc3nc(N4CCOCC4)cc(C(C)(C)C)n3)o2)CC1	-1	5
COCCN(CC(=O)Nc1cc(-c2ccccc2)nn1-c1ccc(F)cc1)C(=O)Nc1cc(OC)cc(OC)c1	-5	3
Cc1cc(NC(=O)c2ccc(N3CCCC3)nn2)n(C(C)(C)C)n1	-2	-1
COc1ccccc1CC(=O)N1CCC2(CN(C)C(=O)O2)C1 (stereo not given)	0	-4
Cc1nnc(-c2cc3ccccc3n2Cc2ccc(Cl)cc2)o1	-3	-3
Cc1cc(NC(=O)Cc2ccc(N3CCCC3=O)cc2)nc(C(C)C)n1	3	2
C[C@]12CCC(=O)C=C1CC[C@@H]1[C@@H]2[C@@H](O)C[C@@]2(C)[C@H]1CC[C@]2(O)C(=O)COC(=O)CCC(=O)O	-10&-4	-12&-19
c1ccc(CCc2cn(CC3COc4ccccc4O3)nn2)cc1 (stereo not given)	-1	-6
Cc1[nH]n(-c2ccccc2)c(=O)c1N=Nc1ccccc1C(=O)N1CCCCC1	-1	-3
COCc1nn2c(ncc3c(=O)n(NC(=O)c4ccccc4)ccc32)c1-c1ccc(F)cc1	2	3
Cc1noc(C)c1CSc1ncnc2sc3c(c12)CCC(C)C3 (stereo not given)	9	7
O=C(Nc1ccc(O)c(-c2nc3ccccc3o2)c1)c1ccc(Cl)cc1Cl	-3	2
O=S(=O)(NC1CC2CCC(C1)N2Cc1ccc2c(c1)OCO2)c1ccccc1 (stereo not given)	6	7
Cn1cnnc1-c1ccccc1NC(=O)C1CCCc2ccccc21 (stereo not given)	5	3
CC[n+]1c(C)n(-c2ccccc2)c2cc(Cl)c(Cl)cc21	2	0
CC(=O)Nc1ccc(C2=Nn3c(nnc(C)c3=O)SC2)cc1	5	2
Cc1noc(C)c1NC(=O)N1CCN(Cc2ccccc2)C(C)(C)C1	6	2
O=S1(=O)N=C(Cc2cccnc2)Nc2ccccc21	1	1
O=C(Nc1cccc2ncccc12)C1CC2CCCC(C1)C2=O (stereo not given)	9	3
CN(C)CCCn1c(-c2ccccc2)cc(=S)c2c1CCCC2	-9	-13
O=C(O)c1cc(F)cc(S(=O)(=O)Cl)c1Br	5	3
O=C(Nc1nnc(SCC(=O)N2CCc3ccccc32)s1)c1ccccc1C(F)(F)F	3	8
OC(c1ccccc1)(c1ccccc1)c1ccc(CN(Cc2ccco2)CC2CCCO2)o1 (stereo not given)	13	17
O=C(C1=CCCCC1)N(Cc1cccnc1)CC1CCCN(C2CCCCC2)C1 (stereo not given)	5	1
Cc1cc(C)c2sc(N(CCN3CCOCC3)C(=O)c3ccc([N+](=O)[O-])s3)nc2c1	9	1
C=CCO[C@@H]1C[C@H]2C(=O)N3CC[C@H](NS(=O)(=O)c4cccc(C(F)(F)F)c4)C[C@H]3C(=O)N2C1	-10	-14
Cc1cccc(N2CCN(Cc3nc(-c4ccc(N5CCCC(C)C5)nc4)no3)CC2)c1C (stereo not given)	6	2
CCCc1cc(N2CCN(Cc3cc(Cl)ccc3O)CC2)nc(C)n1	4	3
Cc1ccc(-c2cc(C(=O)NCc3cccc(C(F)(F)F)c3)n(-c3cccc(Cl)c3)n2)o1	-5	11
O=C(NC1CCCC1)c1cccn2c(=O)c3c4c(sc3nc12)CCCC4	12	5
N#Cc1c2n(c(=O)n(CC(=O)N(C3=CCCCC3)C3CC3)c1=O)CCC2	0	6
COC(=O)c1ccc(OCC(=O)Nc2nc3c(s2)CCCC3)cc1	-5	-12
O=C(CCc1nc2ccccc2[nH]1)N1CCCC2(CCNCC2)CC1	15	10
COc1cccc(Cc2nsc(N3CCC(CNC(=O)COCc4ccccc4)CC3)n2)c1	-10	-15
The list goes on.
SMILES	NPYLR7 agonist	NPYLR7 agonist max-min
CCN1CC(CN(C)Cc2nc(-c3ccccn3)no2)CC1=O (stereo not given)	-6	-7
COc1ccc(S(=O)(=O)NCC(c2ccc3c(c2)CCCN3C)N(C)C)cc1 (stereo not given)	3	2
O=C(Nc1ccccc1Oc1cccnc1)C1CCCN(C(=O)CCc2ccncc2)C1 (stereo not given)	4	6
O=[N+]([O-])c1ccc(C=NC2=NN(c3cccc(C(F)(F)F)c3)CC2)o1	3	-2
Cc1ccc(-c2ccsc2C(=O)NS(=O)(=O)N2CCCCC2)cc1	4	1
O=C(NCc1ccncc1)c1ccc(CSc2nnc(-c3ccccc3Cl)n2-c2cccc(Cl)c2)cc1	16	14
O=C(Nn1cnc2c(cnn2-c2ccccc2)c1=O)c1ccc2c(c1)OCO2	5	-2
O=[N+]([O-])c1ccc(OS(=O)(=O)c2cccc(C(F)(F)F)c2)c(-c2nc3ccccc3o2)c1	4	7
OCc1ccccc1-c1ccc2[nH]ncc2c1	7	5
COC(=O)CCCn1cnc(-c2ccccc2)c1-c1ccco1	15	8
CC(C)(C)NC(=O)CNc1ccc(C#N)cc1[N+](=O)[O-]	21	18
CC(C)C(=O)NCCNC(=O)c1nonc1N	7	5
CCOCCCN(CC(=O)OCc1ccccc1)CC(=O)N(CCc1ccccc1)Cc1ccc(C)o1	5	16
FC(F)(F)Oc1cccc(-c2cc3c(cn2)ncn3CCN2CCOCC2)c1	0	-3
CCOC(=O)c1c(C)nn(-c2ccc(C(=O)N3CCC[C@H]3C(=O)OCc3ccccc3)cc2)c1C	4	3
Cn1c(=O)[nH]c(=O)c2c1nc(NC1CCCCC1)n2CCCc1ccccc1	-1	-3
COCCC(=O)Nc1ccc(S(C)=O)cc1 (stereo not given)	1	2
COC(=O)c1n[nH]c2ccc(NC(=O)C3CCC3)cc12	5	4
COc1ccc2c(c1)OC(C)CN(CCNC(=O)c1cc3cc(F)ccc3[nH]1)C2 (stereo not given)	0	-5
Cn1cc(CN2CCC(C(N)=O)CC2)c(-c2cccc(Cl)c2)n1	21	11
COCCN(Cc1cc(NC(=O)c2cccc(F)c2)ccc1N(C)C)C(=O)Nc1cccc(F)c1	10	13
Cc1noc(C)c1S(=O)(=O)N1CCCC(C(=O)N2CCN(c3ccccc3)CC2)C1 (stereo not given)	0	-1
COc1ccc(N2CCN(C3CCCN(C(=O)CC4=CCCCC4)C3)CC2)cc1 (stereo not given)	-4	-9
CS(=O)(=O)c1ccc(N2CCc3c(sc(N)c3C#N)C2)c(S(C)(=O)=O)c1	3	2
O=C(c1ccc2nc[nH]c2c1)N1CCC(N2CCCC(C(=O)N3CCCC3)C2)CC1 (stereo not given)	23	15
C#CCCOC(=O)C(C)NS(=O)(=O)c1c(C)nn(C)c1C (stereo not given)	-3	-5
CCOc1ccc(-c2nnc3ccc(SCc4ccc(C(=O)OC)o4)nn23)cc1	6	6
N#Cc1cccc(OCCN2CCC3(CC2)CC3c2nnc3n2CCCCC3)c1 (stereo not given)	-7	-9
Cc1cccc(NCC(=O)N2CCc3ccccc32)c1C(=O)N1CCCC1	8	10
Cc1cc(C)cc(COc2coc(CN3CCN(C(=O)c4c(Cl)cc(Cl)cc4Cl)CC3)cc2=O)c1	15	7
O=C(CCCn1cncn1)N1CCc2[nH]nc(-c3cccc4ccccc34)c2C1	14	14
COc1cc2c(cc1OC)C(CNC(=O)CC(C)C)N(C(=O)Nc1cccc(F)c1)CC2 (stereo not given)	0	2
C=CC[C@@H]1CC=C[C@@H](C)N1Cc1ccc(C(=O)Nc2ccnn2C)cc1	20	15
CCC(CO)N(Cc1ccsc1)C(=O)c1cccc(F)c1OC (stereo not given)	-2	-3
O=C(C1=C(O)C(=O)N(CCN2CCOCC2)C1c1ccc([N+](=O)[O-])cc1)c1cccs1 (stereo not given)	5	3
Cc1ccc(C(O)=C2C(=O)C(=O)N(CCCN(C)C)C2c2ccc(F)cc2)cc1 (stereo not given)	-6	-9
O=C(Nc1nnc([C@H]2C[C@H](O)[C@@H](CO)O2)s1)Nc1ccccc1Oc1ccccc1	-1	-3
Cc1noc(C)c1S(=O)(=O)N1CCCNCC1	2	10
COC(=O)c1ccc(NC(=O)C2=CC(C)(C)COc3ccc(OC)cc32)cc1	1	12
O=C(Nc1ccccc1-c1ccccc1)Nc1c[nH]c2ccccc12	4	-1
O=[N+]([O-])c1ccc(C=C2CCC(C=NN=Cc3cccc(Br)c3)=C2N2CCOCC2)cc1	-3	-6
CC(C)CNC(=O)c1cc(-c2ccccc2F)nc2cc(-c3ccccc3)nn12	9	11
COc1cccc2cc(-c3nc4ccccc4[nH]3)c(=Nc3ccccc3)oc12	-6	-14
COC(=O)c1ccc(COC(CN2CCN(C(=O)c3cccs3)CC2)c2cccc(OC)c2)cc1 (stereo not given)	1	-3
O=C(CN1CCN(CC(=O)NC2CCCCC2)CC1)NCc1ccccc1	-2	-1
Cc1cnc(NCc2ccc(C(=O)N(C)C)o2)nc1N(C)C	8	4
COc1ccc(-c2coc3cc(O)ccc3c2=O)c(OC)c1O	-4	-8
COc1cccc(C2=NN(C(C)=O)C(C(=O)NC(C)CCCC(C)(C)O)O2)c1 (stereo not given)	12	10
Cc1cc(C)n2c(C(N)CC(C)C)nnc2n1 (stereo not given)	-1	4
NC1=NC(=O)C(=Cc2ccc3ncccc3c2)S1	-2	14
Cc1cc(C(=O)Nc2ccccc2N2CCCCC2)nn1-c1ccccc1	13	7
CCS(=O)(=O)N1CCCC1C(N)=O (stereo not given)	3	6
O=C(CN1CN(c2ccccc2)C2(CCN(C(=O)c3cccc(Br)c3)CC2)C1=O)NC1CCCCC1	24	25
COc1ccc(-c2nc3ccccn3c2NC(=O)c2ccc(Cl)cc2)cc1	-11	-6
O=C(c1nc2sccn2c1CN1CCOc2ccccc2C1)N1CCCCCCC1	18	8
CN1CCN(c2ccc(N3CCC(N4CCCCCC4)CC3)cc2)C1=O	3	1

Only part of the results is shown; count on the stated rates, not on these rows.
